OX1R antagonist = OX1R (HCRTR1) antagonists, primary screen, fluorescence, CHO/OX1R cells, Fluo-8 calcium, orexin A; 330,000 compounds, 0.43% hits; inhibition, % at 5 µM; Orexin/Hypocretin receptor type 1 (Homo sapiens), O43613; AID 434989, 2010; Fluo-8 calcium fluorescence;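 active = inhibition above its plate's threshold, mean inhibition of all tested compounds on the plate plus 3 SD, cut at about 37% in these data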;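 note: 0% = orexin A challenge wells and 100% = SB-334867-A antagonist wells; not every result past the cut was called active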
Target sequence (O43613 whole entry, looked up): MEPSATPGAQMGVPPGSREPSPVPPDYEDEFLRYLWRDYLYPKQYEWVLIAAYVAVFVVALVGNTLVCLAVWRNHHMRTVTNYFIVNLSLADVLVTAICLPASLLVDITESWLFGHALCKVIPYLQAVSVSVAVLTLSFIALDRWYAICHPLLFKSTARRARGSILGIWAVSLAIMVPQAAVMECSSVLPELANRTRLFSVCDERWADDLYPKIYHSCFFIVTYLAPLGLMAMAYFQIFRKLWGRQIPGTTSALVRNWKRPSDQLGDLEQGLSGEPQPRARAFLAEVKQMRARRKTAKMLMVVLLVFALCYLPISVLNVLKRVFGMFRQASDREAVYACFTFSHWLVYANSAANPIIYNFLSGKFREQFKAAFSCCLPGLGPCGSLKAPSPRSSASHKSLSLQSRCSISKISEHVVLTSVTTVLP
* hit, by the source's call.

Preview, 7 compounds:
| Molecule | OX1R antagonist |
| --- | --- |
| CCOCCCn1c(SCC(=O)Nc2ccc(OC)cc2)nc2ccccc2c1=O | -18 |
| O=C1/C(=C/c2ccc(F)cc2)SC(=S)N1CC(=O)N1CCCCC1c1cccnc1 (centres undefined) | 0 |
| Cc1ccc(C(=O)NCCCc2ccccc2)c(C)c1 | -22 |
| O=C(Nc1ccc(OC(F)F)cc1)c1ccccn1 | -7 |
| COc1cccc(CNc2nccs2)c1O | -18 |
| CC(Sc1nnnn1-c1ccc(O)cc1)C(=O)NC1CCCCC1C (centres undefined) | -10 |
| COc1ccc2[nH]cc(CCNC(=O)Nc3ccccc3C)c2c1 | -1 |

The listing, from the start:
| Molecule | OX1R antagonist |
| --- | --- |
| CCOCCCn1c(SCC(=O)Nc2ccc(OC)cc2)nc2ccccc2c1=O | -18 |
| O=C1/C(=C/c2ccc(F)cc2)SC(=S)N1CC(=O)N1CCCCC1c1cccnc1 (centres undefined) | 0 |
| Cc1ccc(C(=O)NCCCc2ccccc2)c(C)c1 | -22 |
| O=C(Nc1ccc(OC(F)F)cc1)c1ccccn1 | -7 |
| COc1cccc(CNc2nccs2)c1O | -18 |
| CC(Sc1nnnn1-c1ccc(O)cc1)C(=O)NC1CCCCC1C (centres undefined) | -10 |
| COc1ccc2[nH]cc(CCNC(=O)Nc3ccccc3C)c2c1 | -1 |
| COc1cc(OC)c(C(=O)OCC(=O)Nc2cc(C)on2)cc1OC | -10 |
| FC(F)Oc1ccc(NC(=S)Nc2ccc3cn[nH]c3c2)cc1 | -13 |
| COc1ccc(OC)c(Nc2nc(C3CC3)nc3c2nnn3Cc2ccccc2)c1 | -33 |
| CN(CC(=O)Nc1cccc(F)c1)C(=O)c1ccc(-c2ccc(Cl)cc2)o1 | -3 |
| CC(C)c1cc(C(=O)N2CCCC(Nc3ccc(F)c(F)c3)C2)nc(N)n1 (centres undefined) | 1 |
| CC1CN(c2oc(-c3cccs3)nc2C#N)CC(C)O1 (centres undefined) | -25 |
| O=C(NCc1cccs1)C1CCCN(C(=O)Nc2ccc(F)cc2)C1 (centres undefined) | -13 |
| O=S(=O)(c1cccs1)N1CCN(S(=O)(=O)c2cccs2)CC1 | 1 |
| O=C(NCc1ccc(F)cc1)c1ccc(CS(=O)(=O)Cc2ccccc2F)o1 | -18 |
| CN1CCN(C(=O)c2cc3sc4ccccc4c3s2)CC1 | -19 |
| CCc1ccc(NC(=S)NC2CC3CCC(C2)N3Cc2ccco2)cc1 (centres undefined) | -19 |
| O=c1nc(Nc2ccc(OCc3ccccc3)cc2)sc2ncccc12 | -28 |
| CN1C(=O)C(O)(CC(=O)c2cccnc2)c2ccccc21 (centres undefined) | -4 |
| CC1=C(C(N)=O)C(c2ccccn2)n2nc(SCc3ccccc3Cl)nc2N1 (centres undefined) | -11 |
| CCOC(=O)CN1N=C(c2ccc(C)cc2)CCC1=O | -13 |
| COc1cccc(NC(=O)Cn2c(=O)n(C)c(=O)c3sc4c(c32)COC(C)(C)C4)c1 | -25 |
| CC(=O)NCCc1csc(-c2ccccc2)n1 | 11 |
| O=C1c2ccccc2C(=O)N1CCc1csc(-c2ccccc2)n1 | -18 |

Next compounds.
| Molecule | OX1R antagonist |
| --- | --- |
| CC(C)CNC(=O)COC(=O)c1ccc(F)cc1Cl | -2 |
| O=C(CCC(=O)OCC(=O)c1ccc(Br)cc1)NC1CCCCC1 | -5 |
| Cc1ccc(N2CC(C(=O)OCC(=O)C(C)(C)C)CC2=O)cc1C (centres undefined) | -28 |
| CC(C)N(Cc1ccccc1)C(=O)CCc1ccccc1 | -14 |
| COc1cc(C(=O)Oc2ccc3c(c2)OCC3=O)cc(OC)c1OC | -25 |
| O=C(Nc1ccc(F)cc1F)N1CCC(c2nc3ccccc3o2)CC1 | -17 |
| CC(=O)c1c(C)[nH]c(C(=O)OCC(=O)N(C)C)c1C | -8 |
| COc1cc(C(=O)Nc2ccc(Cl)c(C(F)(F)F)c2)cc(OC)c1OC | -19 |
| O=C(CCS(=O)(=O)c1ccccc1)NC1CCCCC1 | -12 |
| COC(=O)C1=C(C)N(c2ccc(C)cc2)/C(=C/c2cccs2)C1=O | -25 |
| O=C(CSc1nnc(CNC(=O)c2ccco2)o1)c1ccccc1 | -12 |
| O=C(COC(=O)c1cccnc1Nc1cccc(C(F)(F)F)c1)NC1CCS(=O)(=O)C1 (centres undefined) | -14 |
| Cc1cc(C)cc(NC(=O)CSc2nnc(CNC(=O)c3ccco3)o2)c1 | -12 |
| Cc1ccc(/C=N/n2c(=O)c(C(C)(C)C)nn3cnnc23)cc1 | -10 |
| NS(=O)(=O)c1ccc(CCNS(=O)(=O)c2ccc(Cl)nc2)cc1 | -3 |
| CCNc1nc(Oc2ccc(=O)n(-c3ccccc3)n2)nc(N(C)C)n1 | -27 |
| CC1CN(c2ccc(NC(=O)c3ccco3)cc2C(=O)O)CC(C)O1 (centres undefined) | -11 |
| C=CCNc1ncnc2c1cnn2-c1ccc(Cl)cc1 | -23 |
| CCOC(=O)C(=O)N/N=C/c1ccco1 | 5 |
| CC(C)C(C(=O)NCc1ccco1)N(Cc1ccco1)C(=O)CNS(=O)(=O)c1ccc(F)cc1 (centres undefined) | -10 |
| CCOC(=O)Cn1ncc2c3ccccc3n(CC(=O)OCC)c2c1=O | -18 |
| O=C(O)/C=C/c1ccc(S(=O)(=O)N2CCN(CCN3C(=O)C4C5C=CC(C5)C4C3=O)CC2)cc1 (centres undefined) | -10 |
| O=S(=O)(Nc1ccccn1)c1cccc(S(=O)(=O)c2ccc(Br)cc2)c1 | -7 |
| O=C(NN=C1CCCCC1)c1ccccc1OCc1ccc(F)cc1 | -41 |
| CNC(=O)N(O)C1N(/N=C/c2cccs2)C(=S)SC1(C)C (centres undefined) | -10 |

Further records
| Molecule | OX1R antagonist |
| --- | --- |
| C=CCN(C(=O)c1cccc(N2C(=O)C3CC=CC(C)C3C2=O)c1)c1ccccc1 (centres undefined) | -35 |
| COc1ccc(CNC(=O)C2CCN(S(=O)(=O)c3ccc4nc5c(c(C(=O)O)c4c3)CC(C)CC5)CC2)cc1 (centres undefined) | -7 |
| COc1ccc(NC(=S)Nc2ccc(OC)cc2OC)c(OC)c1 | -14 |
| CCCN1CCN(C(=O)Cn2c(=O)oc3cc(S(=O)(=O)NCc4ccccc4)ccc32)CC1 | -15 |
| O=C(NCCC1CCCCN1S(=O)(=O)c1ccc(F)cc1)C(=O)NC1CCCC1 (centres undefined) | -16 |
| CC(C)(C)n1nnnc1C(c1cccs1)N(Cc1cccnc1)Cc1ccco1 (centres undefined) | -22 |
| CCOC(=O)c1c(C)oc2c(F)c(F)c(F)c(F)c2c1=O | -17 |
| COc1cccc(NS(=O)(=O)c2ccc3c(c2)n(C)c(=O)c(=O)n3C)c1 | -4 |
| CCCc1cc(=O)[nH]c(SCC(=O)c2cc(C)n(C3CC3)c2C)n1 | -28 |
| CCOC(=O)C1=NOC(CNC(=O)c2c(-c3ccccc3Cl)noc2C)C1 (centres undefined) | -11 |
| COc1ccc(-n2c(CN3CCN(c4ccc(F)cc4)CC3)nc3ccc([N+](=O)[O-])cc3c2=O)c(OC)c1 | -24 |
| Cc1ccc(NC(=O)C2(c3ccccc3)CC2(Cl)Cl)cc1C (centres undefined) | -5 |
| Cc1cccc(/C=C2\Sc3ccc(C(=O)N4CCOCC4)cc3N(C)C2=O)c1 | -26 |
| CC(C)(C)NS(=O)(=O)c1cccc2nsnc12 | 3 |
| O=C(CSc1nc2ccccc2c(=O)n1NC(=O)c1ccccc1)c1ccc(Cl)cc1 | -25 |
| O=C(Nc1cccnc1)c1c(O)c2cccc3c2n(c1=O)CC3 | -27 |
| O=C(CSc1nc2ccccc2c(=O)n1-c1ccccc1)N1CCc2ccccc21 | -19 |
| O=C1CC(c2ccccc2)CC(O)=C1C=NCc1ccc(Cl)cc1 (centres undefined) | -20 |
| Cc1cc(OCC(=O)Nc2nnc(C3CC3)s2)ccc1[N+](=O)[O-] | -6 |
| COc1cccc(OC)c1C(=O)O/N=C(\N)c1ccncc1 | -7 |
| O=C1CCCN1Cc1ncnn1-c1ccccc1 | -12 |
| Cc1ccc(NS(=O)(=O)c2ccccc2Cl)c2c1CC(C)(C)O2 | -38 |
| CC1CCCCN1C(=O)Cn1cnc2c1c(=O)n(C)c(=O)n2C (centres undefined) | 10 |
| Cc1ccc2nc(SCc3nc4cc(Cl)ccc4c(=O)[nH]3)[nH]c2c1 | -33 |
| CC(C)CC(=O)Nc1ccc(N2CCOCC2)cc1 | -12 |

More records
| Molecule | OX1R antagonist |
| --- | --- |
| COc1cccc(CN(C)CC(O)COC(c2ccccc2)c2ccccc2C)c1 (centres undefined) | -14 |
| O=C(c1cccc(-c2ccc(O)cc2)c1)N1CCOCC1 | -22 |
| O=C(Oc1ccc(Br)cc1C(=S)N1CCOCC1)c1cccc([N+](=O)[O-])c1 | -21 |
| O=C(Nc1ccc(NC(=O)c2cccnc2)cc1)c1ccccc1 | -10 |
| COc1ccc(CCNc2ccc(C(CC(N)=O)NC(=O)c3ccc(Br)cc3)cc2[N+](=O)[O-])cc1 (centres undefined) | 0 |
| CCOC(=O)c1cnc(N2CCOCC2)[nH]c1=O | 0 |
| CC(=O)NS(=O)(=O)c1cccnc1Nc1cccc(Cl)c1C | 7 |
| CCOC(=O)c1c(C)c(C(=O)NCCN2CCOCC2)c(C)n1CC | -13 |
| O=C(Nc1ccccc1)/C(=C/c1ccc([N+](=O)[O-])cc1)NC(=O)c1ccco1 | 5 |
| CCCCOc1ccc(Cc2c(COCC)[nH]c(=S)[nH]c2=O)cc1 | -31 |
| O=C(/C=C/c1ccco1)NCc1ccc(F)cc1 | -3 |
| COc1ccc(N2CCN(C(C)C(=O)N3CC(C)OC(C)C3)CC2)cc1 (centres undefined) | -3 |
| N#Cc1cccc(NC(=O)CN2NS(=O)(=O)c3ccccc3C2=O)c1 | -16 |
| CO[C@@H]1O[C@@H]2COC(c3ccccc3)O[C@@H]2[C@@H](OC)[C@@H]1O (some centres undefined) | -27 |
| COc1ccc(NS(=O)(=O)c2ccc(OC)c(OC)c2)cc1OC | -6 |
| COc1ccc(-c2cc3ccc(OCC(N)=O)cc3oc2=O)cc1OC | -20 |
| CCCCN(CCCC)CC(O)COc1ccc(Br)cc1 (centres undefined) | -34 |
| Cc1cccc(S(=O)Cc2ccc(C(=O)N3CCN(C(=O)c4ccco4)CC3)o2)c1 (centres undefined) | -18 |
| CCn1c(SCC(=O)Nc2nnc(C)s2)nc2c(c1=O)SC(C)C2 (centres undefined) | -11 |
| CC1CCN(C2(O)C(=O)Nc3ccc(Cl)cc32)CC1 (centres undefined) | -17 |
| Cc1cc(C)n(-c2nc3c(c(=O)[nH]c(=O)n3C)n2CC(O)c2ccccc2)n1 (centres undefined) | -25 |
| COC(=O)c1c(NC(=O)c2ccco2)sc2c1CC(C)(C)NC2(C)C | -10 |
| CCN1CCN(c2ccc(S(=O)(=O)N3CCCCC3)cc2NC(=O)Cc2ccccc2F)CC1 | -30 |
| COc1ccc(C(=O)O/N=C(/C)c2cccs2)cc1 | -3 |
| Cc1ccc(Cn2c(C)nc3ccc([N+](=O)[O-])cc3c2=O)cc1 | -5 |

3 compounds already listed, arranged by their value in OX1R antagonist, ascending.
| Molecule | OX1R antagonist |
| --- | --- |
| CO[C@@H]1O[C@@H]2COC(c3ccccc3)O[C@@H]2[C@@H](OC)[C@@H]1O (some centres undefined) | -27 |
| COC(=O)c1c(NC(=O)c2ccco2)sc2c1CC(C)(C)NC2(C)C | -10 |
| Cc1ccc(Cn2c(C)nc3ccc([N+](=O)[O-])cc3c2=O)cc1 | -5 |

Continued:
| Molecule | OX1R antagonist |
| --- | --- |
| O=C(/C=C/c1ccccc1)Oc1ccccc1C(=S)N1CCOCC1 | -32 |
| Cc1cc2ccccn2c1C(=O)Nc1ccc(Cl)cc1 | -18 |
| Cc1ccccc1N1C(=O)C2ON(c3ccccc3)C(c3ccncc3)C2C1=O (centres undefined) | -20 |
| Cc1nc2c(C)cccn2c1/C(O)=C1\C(=O)C(=O)N(CCN(C)C)C1c1ccncc1 (centres undefined) | -1 |
| O=C(N/N=C/C=C/c1ccccc1[N+](=O)[O-])c1cccs1 | -18 |
| C#CCOCCOCCOCCNc1nc(N2CCN(C(=O)CCCCCCCCCCNC(=O)Cn3cc(CCCCCN)nn3)CC2)nc(N2CCN(C(=O)CCCCCCCCCCNC(=O)[C@@H](CCSC)n3cc(CCO)nn3)CC2)n1 | -10 |
| COc1cc2[nH]c(=S)nc(NCc3cccs3)c2cc1OC | -31 |
| CCN1C(=NCCc2c[nH]c3ccccc23)N[C@@H](c2ccccc2)[C@H](C(=O)OC)[C@H]1C | -12 |
| Cc1cc(C)n(CCNS(=O)(=O)c2ccc(C)c(C)c2)n1 | -13 |
| COC(=O)c1c(NC(=O)CSc2nnnn2-c2ccccc2)sc2c1CCC(C(C)(C)C)C2 (centres undefined) | -1 |
| COC(=O)c1cn(Cc2ccccn2)c(=O)c2ccccc12 | -7 |
| Cc1ccccc1OC(=O)C1C(c2ccccc2)C(C(=O)O)C1c1ccccc1 (centres undefined) | -4 |
| Cc1ccc(-n2c(C)cc(C(=O)COC(=O)c3ccc[nH]c3=O)c2C)cc1C | -27 |
| Cc1ccc(NC(=O)/C(=C\c2ccco2)NC(=O)c2ccco2)cc1 | -4 |
| COc1cccc(Oc2cc(NN3CCCCC3)c([N+](=O)[O-])cc2[N+](=O)[O-])c1OC | -8 |
| Cc1ccc2cc(C(c3nnnn3Cc3ccccc3)N3CCc4ccccc43)c(=O)[nH]c2c1C (centres undefined) | -28 |
| Cc1ccc(CNC(=O)c2cncc(Br)c2)cc1 | -7 |
| NS(=O)(=O)c1ccc(NC(=O)CSC2=NC(=O)C(c3ccccc3)C(=O)N2)cc1 (centres undefined) | -13 |
| C=C1C(=O)O[C@H]2C1CC[C@@](C)(O)C13C=CC(C)(C21)C1(C3)C(=O)O[C@@H]2C3C(C)=CCC3[C@](C)(O)C[C@H](OC(C)=O)C21 (some centres undefined) | -24 |
| O=C(O)CNC(=S)N(Cc1ccccc1Cl)C1CCCCC1 | 0 |
| O=C(CCCn1c(SCC(=O)Nc2ccccc2C(F)(F)F)nc2ccccc2c1=O)NCC1CCCO1 (centres undefined) | -2 |
| O=C(O)CCC(=O)Nc1ccc(N2CCCCCC2)cc1 | -2 |
| O=c1ccc(=O)n(-c2ccccc2)[nH]1 | -1 |

Bioassay records: PubChem, The Scripps Research Institute Molecular Screening Center

An excerpt, and most or all hits are left out here.
